Source: PubChem BioAssay (ICCB-Longwood Screening Facility, Harvard Medical School)
VACV E9 pol inh: vaccinia E9 polymerase processive synthesis inhibitors, primary screen, biochemical, absorbance; normalized absorbance, % (concentration not given with the values); in vitro processive DNA synthesis, absorbance read-out; stronger effect = lower value; some inactives read as strong as hits; 46,000 tested, 0.94% active; Vaccinia virus DNA polymerase (E9) processive complex;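 active means replicate mean up to 90% and picked by the depositor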;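 further: 100% = median of the test wells of a plate; 100 nL library stock went into each well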
The depositor's hits bear a star.

SMILES,VACV E9 pol inh
O=C(/C=C/C(=O)N1CCN(c2ccccc2F)CC1)N1CCN(c2ccccc2F)CC1,104
CCN(CC)c1ccc2c(C)cc(=O)oc2c1,98
O=C(CC(NCc1cccnc1)C(=O)O)Nc1ccccc1 (stereo unspecified),98
N#Cc1c(Nc2ccccc2)sc(N)c1C(=O)c1ccccc1,97
O=C(O)c1ccc2c(c1)C1c3ccccc3CC1C(c1cccc(Cl)c1)N2 (stereo unspecified),100
O=C1NC(=O)C2C1ON(c1ccccc1)C2c1ccccc1 (stereo unspecified),83
O=C(C(C(=O)N1CCCCC1)C12CC3CC(CC(C3)C1)C2)N1CCCCC1,92
CCN(CC)S(=O)(=O)c1ccc(C(=O)Nc2nc3c(F)cc(F)cc3s2)cc1,101
Cc1cccc(-c2nc(CN3N=C(N4CCOc5ccc(Cl)cc54)CCC3=O)c(C)o2)c1,100
CCn1nc(C)c(Br)c1C(=O)Oc1ccc(Cl)cc1,98
O=c1cc(-c2ccccc2)c2ccc(O)c(O)c2o1,97
COc1ccc(-c2cc(C(F)(F)F)nc(SCC(=O)N3CCCCCC3)n2)cc1OC,97
O=S(=O)(c1ccc(-c2ccon2)s1)N(Cc1ccccn1)Cc1ccccn1,102
O=C(Nc1ccc(N2CCCCC2)cc1)c1ccc(F)cc1Cl,106
Cc1cc(C)cc(Nc2cc(C(=O)NC3CCCC3)c3ccccc3n2)c1,104
Cc1cc2cc(CNC(=O)C(C)Oc3ccccc3)ccc2[nH]1 (stereo unspecified),101
CN(C(=O)Cn1cc(C#N)c2ccccc21)c1ccccc1,96
CCN(Cc1ccccc1)C(=O)Cn1ncc2c3ccccc3n(Cc3c(C)cc(C)cc3C)c2c1=O,102
CC(C)(C)c1ccc(-c2nc(=O)[nH]n2-c2ccccc2)cc1,100
O[C@H]1[C@H](O)[C@@H](O)CN2CC[C@H](O)[C@H]12,100
CCN1C(=O)/C(=C/c2ccccc2O)SC1=S,99
CCOc1ccccc1NC(=O)c1c(Cl)nc2sccn12,100
O=C(NCc1nc2ccccc2[nH]1)c1cccs1,100
O=C(OCc1ccccc1)c1cnc(Cl)c(Cl)c1,97
Cc1ccc2c(c1)C1CN(C)CCC1N2C(=O)c1ccccc1 (stereo unspecified),89
COC(=O)CSC1=C(C#N)C(c2ccc(Cl)cc2Cl)CC(=O)N1 (stereo unspecified),101
CSc1nc2ccc3nc(NC(=O)c4ccccc4C)sc3c2s1,100
OCCN1CCN(CCCN2c3ccccc3Sc3ccc(C(F)(F)F)cc32)CC1,98
Cc1ccccc1C(N)CC(=O)O (stereo unspecified),101
O=C1N=c2ccc(Br)cc2=C1c1sc(=S)n(-c2cccc(Br)c2)c1O,100

(cont.)
SMILES,VACV E9 pol inh
NC(=NC(=O)c1ccc(Cl)cc1Cl)N1CCCC1,103
CCOC(=O)C1CCCN(C(=O)CCCC(=O)n2ncc3cc(C)ccc32)C1 (stereo unspecified),104
Cc1ccccc1S(=O)(=O)/N=C(\N)c1ccccc1,100
Cc1cccc(C)c1NC(=O)COC(=O)c1cc(Cl)cc(Cl)c1,102
O=C(CC1OC(=O)c2ccccc21)c1ccc(Cl)s1 (stereo unspecified),100
NC(=O)CSc1nc2c(c(C(F)(F)F)n1)CCc1ccccc1-2,97
COc1ccc2cc3c(NC(=O)Cc4cccc(C(F)(F)F)c4)n[nH]c3nc2c1,103
COc1ccc(-c2nnc(Nc3cccc(C(F)(F)F)c3)c3ccccc23)cc1,100
COc1cccc2c1NC1CC(C)CCC1C2(C)C (stereo unspecified),100
CCOC(=O)N1CCC(NS(=O)(=O)c2ccc3[nH]c4c(c3c2)CCCC4)CC1,104
O=C(O)c1cn(-c2ccc(F)cc2)c(=O)c2ccccc12,81
O=C(Oc1ccc(OC(=O)c2ccco2)cc1)c1ccco1,100
CCc1cc2c(=O)c(-c3nc(C)cs3)coc2cc1OC(C)C(=O)O (stereo unspecified),102
Cc1ccc(C(=O)c2ccc(Oc3ccccc3)cc2)cc1,100
COC(=O)c1ccc(CSc2nc(-c3ccc(OC)cc3)ns2)o1,100
O=C(CSc1nc2c(c(=O)n1Cc1ccccc1)SCC2)NC1CCCC1,99
COc1ccc(/C=C2\N=C(c3ccccc3)N(/N=C/c3cccnc3)C2=O)cc1,99
Fc1cccc(Cl)c1C=NCc1ccc(Cl)cc1,95
CCC(CC)NC(=O)C1c2ccccc2Oc2ccccc21,100
CN(C1CCCCC1)S(=O)(=O)c1ccc(S(=O)(=O)c2ccccc2)s1,92
COc1ccc2[nH]c3c(=O)n(CCCCC(=O)NCc4ccccc4)c(=S)[nH]c3c2c1,98
CCCCCCCCCC(=O)OCC(CO)OC(=O)CCCCCCCCC (stereo unspecified),100
CCOC(=O)N1CCC(Nc2nc(OC)nc(OC)n2)CC1,100
OC[C@H]1O[C@@H](Oc2c[nH]c3ccc(Br)c(Cl)c23)[C@H](O)[C@@H](O)[C@H]1O,98
c1ccc(CSc2nncn3c2cc2sccc23)cc1,96
O=S(=O)(CCCCl)c1nc2ccccc2s1,104
C=CCC1C(=S)SC(C(=O)OCC)=C1NC(=O)c1cccs1 (stereo unspecified),100
CCc1ccc(N2C(=O)CN(CC(=O)OC)C2=S)cc1,100
Cc1ccc(/C=C/c2onc3c(=O)n(C)nc(C)c23)cc1,98
CC(=O)N=c1scc(-c2ccccc2)n1-c1ccc(Cl)cc1,99

Next part:
SMILES,VACV E9 pol inh
CCN(C(=O)c1ccc2c(c1)CCO2)c1cccc2ccccc12,79
CCOC(=O)c1ccc(CC2SC(=Nc3ccc(CC)cc3)NC2=O)cc1 (stereo unspecified),100
Cn1nc(C(=O)NCCc2ccsc2)c2c1-c1ccccc1SC2,83
CCC(=O)O[C@]1(C(=O)CCl)[C@@H](C)CC2C3CCC4=CC(=O)C=C[C@]4(C)[C@@]3(F)[C@@H](O)C[C@@]21C (stereo partly specified),100
CC(C)NC(=O)c1ccc(S(=O)(=O)N2CCCCCC2)cc1,90
CC1(C)CC(=O)OC(c2ccccc2)(c2ccccc2)C1,100
O=S(=O)(/N=C(/Nc1cc(N2CCOCC2)ncn1)c1ccccc1)c1ccccc1,100
COc1ccc2cc(CCNC(=O)c3ccco3)c(=O)[nH]c2c1,99
Cc1ccc(S(=O)(=O)N2CCC(=O)CC2)cc1,82
N#Cc1c(/N=C/N2CCCC2)sc2c1CCCCC2,100
N=c1ncn(CC(O)CO)c2nc(Br)[nH]c12 (stereo unspecified),100
CCOC(=O)Cc1csc(NC(=O)c2ccc3ncsc3c2)n1,88
CCC(C)(C)NC(=O)c1ccc(S(=O)(=O)N2CCCC2)cc1,97
CCn1cc(C(=O)N2CCN(C)CC2)c(=O)c2cc(S(=O)(=O)N(C)C)ccc21,100
C=CCc1c(C)[nH]c(=S)[nH]c1=O,101
N#Cc1c(N)n(-c2ccc(C(F)(F)F)cc2)c2nc3ccccc3nc12,82
CCN(CC)CC(O)Cn1c2ccccc2c2ccccc21 (stereo unspecified) (tested in a mixture with another compound),76*
O=C1COc2cc(S(=O)(=O)N3CCCCCC3)ccc2N1,96
CCn1c(C)nc2cc(C(=O)OC)ccc21,106
O=C(O)CN(Cc1ccccc1)C(=O)C(F)(F)F,104
CC1=NCCN1S(=O)(=O)c1c(C(C)C)cc(C(C)C)cc1C(C)C,98
Cc1ccc2onc(CC(=O)NC3CCCCC3)c2c1,97
O=S(=O)(O)CCS,100
COCC(C)NC(=O)c1cccs1 (stereo unspecified),98
O=C(Nc1ccccc1)Nc1nc(=O)c2ccccc2s1,99
FC(F)(F)c1nc2ccccc2nc1NCc1cccnc1,95
CN(C(=O)COc1ccc2ccc(=O)oc2c1)C1CCCCC1,97
Cc1c(OCC(=O)O)ccc2c(-c3ccccc3)cc(=O)oc12,88
CC(C)(C)C(=O)OCc1nc(-c2ccc(C(F)(F)F)cc2)cs1,95
O=C(CSc1nc(-c2ccccc2)cc(=O)[nH]1)c1ccc(Cl)s1,76

Later entries.
molecule,VACV E9 pol inh
CC1=CC(C)C2(COC(=O)Nc3ccccc3)COC(c3cccnc3)C1C2C (stereo unspecified),92
CSc1nc2ccc(NC(=O)C3=COCCO3)cc2s1,99
OC(Cc1nc2ccccc2[nH]1)c1nc2ccccc2[nH]1 (stereo unspecified),80
c1nc(N2CCCC2)c2ccsc2n1,102
O=C(CN1C(=O)S/C(=C/c2ccc(Cl)cc2)C1=O)NC1CCCCC1,106
O=C(O)CC1(CC(=O)NCc2ccc3c(c2)OCO3)CCCCC1,100
NC(=O)c1ccccc1N=Cc1ccc2ccccc2c1,99
O=C(NCCCn1ccnc1)c1cn(-c2ccccc2)nc1-c1ccccc1,82
Cc1oc2ccc(O)cc2c1C(=O)O,100
COC(CNC(=O)/C=C1\Sc2ccccc2NC1=O)OC,96
c1ccc(Nc2cn[nH]n2)cc1,103
CC(=O)N(/N=C1\Sc2ccccc2C1=O)c1ccccc1,100
COC(=O)CCS(=O)(=O)c1ccc(Cl)c(Cl)c1,99
CCN(CCS(=O)(=O)c1ccc(Cl)cc1)C(=O)Nc1ccc(Cl)cc1,109
Cc1sc(Nc2ccccc2)nc1-c1ccc(Cl)cc1,100
CCOc1ccc(OCC)c(NC(=O)CCS(=O)(=O)c2ccc(C)cc2)c1,91
COc1ccc(Cn2cc[nH]c(=O)c2=O)cc1,104
CC(NC(=O)c1ccc2c(c1)OCO2)c1ccccc1 (stereo unspecified),97
S=C(Nc1ccc(Cl)cc1Cl)N1CCCC1c1cccs1 (stereo unspecified),88
Cc1ccc(C)n1C1CCCCC1,102
O=C(Nc1ccccc1C(F)(F)F)c1cnccn1,100
CC1=C(C(=O)OC(C)C)C(c2ccc(C(C)C)cc2)C(C#N)=C(N)S1 (stereo unspecified),100
Oc1cc2c(cc1C(Nc1ccccn1)c1ccc3c(c1)OCO3)OCO2 (stereo unspecified),101
CCC(C)NC(=O)c1cn(CC)c2ccc(S(=O)(=O)N3CCCCCC3)cc2c1=O (stereo unspecified),100
O=C(Nc1ccc(OC(F)(F)F)cc1)N1CCC(O)CC1,92
O=C(C1CCC1)N1CCc2cc(S(=O)(=O)NC3CCCC3)ccc21,89
Cc1ccc[n+](C(C)C(=O)c2ccccc2)c1 (stereo unspecified),99
Nc1ccc(OCC(O)C[n+]2ccccc2)cc1 (stereo unspecified),100
CCOC(=O)c1ccc(CN)cc1,98
c1ccc(OCc2cn3cccnc3n2)cc1,101

Quoted from the listing (21 entries):
molecule,VACV E9 pol inh
COC(CNC(=O)/C=C1\Sc2ccccc2NC1=O)OC,96
c1ccc(Nc2cn[nH]n2)cc1,103
CC(=O)N(/N=C1\Sc2ccccc2C1=O)c1ccccc1,100
COC(=O)CCS(=O)(=O)c1ccc(Cl)c(Cl)c1,99
CCN(CCS(=O)(=O)c1ccc(Cl)cc1)C(=O)Nc1ccc(Cl)cc1,109
Cc1sc(Nc2ccccc2)nc1-c1ccc(Cl)cc1,100
CCOc1ccc(OCC)c(NC(=O)CCS(=O)(=O)c2ccc(C)cc2)c1,91
COc1ccc(Cn2cc[nH]c(=O)c2=O)cc1,104
CC(NC(=O)c1ccc2c(c1)OCO2)c1ccccc1 (stereo unspecified),97
S=C(Nc1ccc(Cl)cc1Cl)N1CCCC1c1cccs1 (stereo unspecified),88
Cc1ccc(C)n1C1CCCCC1,102
O=C(Nc1ccccc1C(F)(F)F)c1cnccn1,100
CC1=C(C(=O)OC(C)C)C(c2ccc(C(C)C)cc2)C(C#N)=C(N)S1 (stereo unspecified),100
Oc1cc2c(cc1C(Nc1ccccn1)c1ccc3c(c1)OCO3)OCO2 (stereo unspecified),101
CCC(C)NC(=O)c1cn(CC)c2ccc(S(=O)(=O)N3CCCCCC3)cc2c1=O (stereo unspecified),100
O=C(Nc1ccc(OC(F)(F)F)cc1)N1CCC(O)CC1,92
O=C(C1CCC1)N1CCc2cc(S(=O)(=O)NC3CCCC3)ccc21,89
Cc1ccc[n+](C(C)C(=O)c2ccccc2)c1 (stereo unspecified),99
Nc1ccc(OCC(O)C[n+]2ccccc2)cc1 (stereo unspecified),100
CCOC(=O)c1ccc(CN)cc1,98
c1ccc(OCc2cn3cccnc3n2)cc1,101

The results go on:
molecule,VACV E9 pol inh
Cc1ccc(C)n1-c1sccc1C#N,96
CCn1c(-c2ccc(F)cc2)csc1=Nc1cc(OC)c(Cl)cc1OC,100
CCc1nc2ccccc2nc1CC,97
Cc1cc(Br)ccc1NC(=O)CC1CCCCC1,103
CCN(CC)C(=O)CN1C(=O)S/C(=C\c2ccccc2)C1=O,98
CC(=O)Oc1ccc2c(=O)c(Oc3ccccc3)c(C)oc2c1,101
CCc1[nH]c(=S)[nH]c(=O)c1C#N,84
COc1ccc(C2SCC(C(=O)O)N2C(C)=O)cc1 (stereo unspecified),96
CCOC(=O)Cc1c(C)[nH]c(=O)[nH]c1=O,100
COc1ccc(OCC(=O)Nc2c[nH]c(=O)[nH]c2=O)cc1,106
COC(=O)c1c(C(C)(C)C)oc2c1cc(NS(=O)(=O)c1ccc(C)cc1)c1ccccc12,100
O=C(COC(=O)COc1ccc(Br)cc1)NC1CCCC1,85
CCC(=O)NC(C)c1nc2ccccc2[nH]1 (stereo unspecified),98
O=C(O)Cc1cn(-c2ccc(Cl)nn2)c2ccccc12,87
Cc1cccc(N2CCN(C(=O)CCC(=O)O)CC2)c1C,95
CCc1ccc(NC(=O)COC(=O)CC2CCCC2)cc1,97
COC(=O)C1Cc2ccccc2CN1 (stereo unspecified),81
N#Cc1c(N2CCCC2=O)sc2c1CCC2,118
Cc1c(Cc2ccccc2)sc(/N=C/c2ccc(Cl)cc2)c1C(N)=O,100
Cc1onc(-c2ccccc2)c1C(=O)Nc1cccnc1,96
CCCNC(=O)c1ccc2c(c1)N(Cc1ccc(F)cc1)CCS2,72
Cc1cc(Sc2ccccn2)c2ccccc2n1,100
CN(C)C(=O)COc1ccc2c(-c3ccccc3)cc(=O)oc2c1,95
Cc1ccc2cc(CCNC(=O)C34CC5CC(CC(C5)C3)C4)c(=O)[nH]c2c1C,98

2 records drawn at random from those above, as already listed:
molecule,VACV E9 pol inh
COC(=O)c1c(C(C)(C)C)oc2c1cc(NS(=O)(=O)c1ccc(C)cc1)c1ccccc12,100
O=C(COC(=O)COc1ccc(Br)cc1)NC1CCCC1,85

Some of the compounds tested; rates above refer to the full screens.
